Assay outcomes deposited in PubChem by several laboratories.
B2AR ag: activates human beta-2 adrenergic receptor causing internalization; P07550; Am2.2-beta2AR cells, FAP receptor internalization, flow cytometry; reference of the scale not given here; response, % (concentration not given with the values); actives 0.43% (n = 340,000);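 active means response above a set limit, near 3 SD of response in nonfluorescent compounds, cut at about 42% in these data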;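 further: stock transfer was 100 nL into about 11 µL; a reference agonist was the positive control; negative values mostly stem from fluorescent compounds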
Target sequence (P07550 whole entry, looked up): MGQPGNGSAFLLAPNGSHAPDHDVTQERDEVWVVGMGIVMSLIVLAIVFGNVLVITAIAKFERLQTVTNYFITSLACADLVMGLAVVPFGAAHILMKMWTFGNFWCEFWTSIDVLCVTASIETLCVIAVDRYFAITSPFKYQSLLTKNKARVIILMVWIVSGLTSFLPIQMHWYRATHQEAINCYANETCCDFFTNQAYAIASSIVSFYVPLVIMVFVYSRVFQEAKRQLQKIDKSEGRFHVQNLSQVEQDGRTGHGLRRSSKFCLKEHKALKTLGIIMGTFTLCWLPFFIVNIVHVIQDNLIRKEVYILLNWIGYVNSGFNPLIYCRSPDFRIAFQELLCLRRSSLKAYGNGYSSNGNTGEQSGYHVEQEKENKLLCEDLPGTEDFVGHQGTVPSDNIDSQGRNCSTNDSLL
Calb FLC: affects C. albicans growth with fluconazole | C. albicans CaCi-2 (fluconazole-resistant clinical isolate) + fluconazole, Alamar Blue growth, 48 h | growth inhibition, % (no concentration beside the values) | actives 0.57% (n = 300,000) | AID 1979;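 active means most replicates above 75%; inconclusive means exactly half above 75%; inactive means most below 75%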;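 further: all wells also contain fluconazole at 8 µg/ml as a sub-toxic cotreatment; 0% = median of DMSO wells and 100% = median of geldanamycin control wells; wells of about 8 µL received 7.5 nL stock; the first replicate is given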
RanGTP-Imp inh: inhibitors of RanGTP-importin-beta interaction, primary screen, biochemical, FRET, CFP-Ran, YFP-importin-beta, homogeneous | cell-free CFP-Ran/YFP-importin-beta FRET ratio | inhibition, % (test concentration not listed) | actives 1.1% (n = 300,000) | AID 2216;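 active means most replicates above 15%; inconclusive means exactly half above 15%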;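 further: 0% = DMSO wells and 100% = Ran loaded with GDP instead of GTP; wells of about 40 µL received 100 nL stock; the first replicate is given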
HNF4A DNA FP: change in binding of human HNF4 alpha to DNA; activity change, % at 10 µM; actives 0.3% (n = 360,000); HNF4a-FITC DNA binding, fluorescence polarization, 1 h; P41235; in the data active means activity change above about 30%, passing the limit was not always enough;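 further: controls were the assay level and a saturating level of protein; the project sought stronger binding though the title names inhibitors; some compounds called inactive have numbers as strong as hits; positive values seem to mean higher polarization but the record does not say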
Target sequence (P41235 whole entry, looked up): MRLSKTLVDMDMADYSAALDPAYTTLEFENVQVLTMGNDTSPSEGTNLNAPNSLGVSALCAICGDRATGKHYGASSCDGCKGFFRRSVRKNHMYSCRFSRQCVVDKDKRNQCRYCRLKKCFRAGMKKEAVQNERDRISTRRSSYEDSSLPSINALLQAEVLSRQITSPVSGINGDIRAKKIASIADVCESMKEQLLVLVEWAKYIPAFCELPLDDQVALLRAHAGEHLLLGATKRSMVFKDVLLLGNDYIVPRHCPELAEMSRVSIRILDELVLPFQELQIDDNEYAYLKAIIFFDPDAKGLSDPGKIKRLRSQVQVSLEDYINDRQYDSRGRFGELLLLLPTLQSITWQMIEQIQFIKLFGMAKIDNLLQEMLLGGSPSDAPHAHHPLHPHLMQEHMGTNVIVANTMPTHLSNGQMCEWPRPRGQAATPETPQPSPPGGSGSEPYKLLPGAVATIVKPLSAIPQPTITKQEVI
LANA-H2A inh: blocks KSHV LANA binding to histone H2A/H2B; cell-free LANA-H2A/H2B peptide, fluorescence polarization; actives 0.6% (n = 320,000); inhibition, % (test concentration not listed); in the data active means inhibition mostly above about 10%, no sharp cut-off; inactive means mostly below about 6.7%;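 further: stock transfer was 7.5 nL into about 10 µL; 0% = median of vehicle wells and 100% = median of positive control wells; one replicate is shown; the record names a cut of 25% in any replicate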
ALR inh: inhibitors of human sulfhydryl oxidase ALR; actives 3.8% (n = 290,000); P55789; inhibition, % (concentration not given with the values); purified ALR, DTT oxidation, H2O2 HRP-luminol luminescence;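 active means mean and each replicate at 75% or more; inconclusive means only one of the two met; inactive means neither met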;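 further: stock transfer was 7.5 nL into about 7.5 µL; 0% = neutral wells and 100% = wells with inactivated enzyme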
Target sequence (P55789 whole entry, looked up): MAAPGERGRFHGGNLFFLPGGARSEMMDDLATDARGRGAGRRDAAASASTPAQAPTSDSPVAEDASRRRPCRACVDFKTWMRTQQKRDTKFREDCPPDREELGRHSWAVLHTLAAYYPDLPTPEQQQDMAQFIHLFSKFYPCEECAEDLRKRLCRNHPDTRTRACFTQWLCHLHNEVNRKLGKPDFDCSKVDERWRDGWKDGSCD
Vif TR-FRET: HIV-1 Vif–A3G interaction blockers – biochemical, TR-FRET, GST-Vif 1-94, biotin-A3G peptide, dose response retest, primary screen (AID 1117319); TR-FRET GST-Vif / biotin-A3G peptide binding; higher % means a stronger effect; test concentration not given here; strong numbers were not always called active; actives 0.57% (n = 260,000); inhibition, %, or IC50 in µM where a hit was titrated;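 active means above the screen mean plus three standard deviations and confirmed in dose response; inconclusive means results disagree or hit not tested in dose response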;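 further: Vif residues 1-94 fused to GST binding biotinylated APOBEC3G peptide 110-148; 0% = full assay without inhibitor and 100% = GST in place of GST-Vif; retest series ran down from 100 µM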
* = called active by the depositor; i = inactive; ? = inconclusive; / = not tested or not shown.

SMILES	B2AR ag	Calb FLC	RanGTP-Imp inh	HNF4A DNA FP	LANA-H2A inh	ALR inh	Vif TR-FRET
CCCCN1CCC(CN2C(=O)C(=O)NC[C@@H]2Cc2ccccc2)CC1	-6	/	/	3.4	/	/	7%
O=S(=O)(c1ccc(OCc2nc3ccccc3s2)c(Cl)c1)N1CCOCC1	-2	-5	-1.2	5.4	3.6	-1	65%
CC1CCN(CCC(=O)Nc2ccc(Br)cc2)CC1	-10	-3	?	1.1	-0.8	-1	/
COc1cccc(/C=C2\Sc3ccc(C(=O)NCc4cccnc4)cc3N(C)C2=O)c1	20	6	-2.5	0.2	-2.2	-2	1%
COc1ccc(CC(=O)NCc2nnc(SCC(=O)Nc3ncc(C)s3)n2C)cc1	-5	4	-1.9	4.0	-1.3	-2	-3%
O=C(NC(=S)Nc1ccc2[nH]c(=O)[nH]c2c1)c1ccccc1Cl	5	35	1.3	2.5	10	/	2%
Cc1cccc(NC(=S)N2CCC(NC(=O)c3cccc(F)c3)CC2)c1	-1	-4	-0.7	2.6	3.0	1	/
CCC(NC(=O)c1ccccc1NC(=O)C(C)(C)C)C(=O)N1CC(C)OC(C)C1 (centres undefined)	-7	/	/	-3.6	-0.8	-3	/
O=C(NC1CC1)C1=C[C@@H](c2c[nH]c3ccccc23)C[C@@H](OCc2ccc(CO)cc2)O1	-11	1	0.8	4.6	6.2	-13	7%
COc1ccc2sc(NC(=O)NC(=O)c3c(Cl)cccc3Cl)nc2c1	8	37	4.2	0.8	0.6	-2	-4%
C[C@H](CO)N1C[C@H](C)[C@@H](CN(C)S(=O)(=O)c2ccccc2)Oc2c(NC(=O)Nc3ccc(C(F)(F)F)cc3)cccc2C1=O	4	/	/	6.0	2.6	-7	/
C/C(=N\NC(=O)Cn1cc([N+](=O)[O-])cn1)c1ccco1	0	-2	5.1	-3.3	-6.1	-2	4%
CCCC(=O)Nc1cc(C(=O)O)ccc1S(=O)(=O)c1ccc(Cl)cc1	0	4	0.0	-4.4	4.4	-5	-6%
Cc1cc(-c2ccc(C)c(S(=O)(=O)NCc3ccc(OC(C)C)cc3)c2)on1	-11	32	-1.4	0.8	0.3	1	/
CC(C)(C)c1cc(C(=O)NCc2cc(F)cc3c2OCOC3)n(Cc2ccccc2)n1	3	2	5.2	-0.8	-4.1	-5	-6%
CN(C)CCOC1c2ccccc2-c2ccccc21	-3	16	-1.7	3.0	1.7	-7	/
COc1cccc(/C=C2/NC(=O)NC2=O)c1OCC(=O)Nc1ccccc1	4	0	-0.2	-2.3	/	/	3%
COc1ccc(NC(=O)c2ccccn2)cc1	-1	3	6.9	-0.8	3.6	2	5%
Cc1ccc(-n2nc3c(c2NC(=O)C(C)(C)C)CS(=O)(=O)C3)cc1	1	2	-3.1	3.1	0.6	-6	?
CNc1nc(OC)nc(N(C#N)CN2C(=O)c3ccccc3S2(=O)=O)n1	12	2	-2.7	-1.7	-0.3	3	-5%
O=C(C[n+]1cccc(CNC(=O)c2ccc(OC(F)F)cc2)c1)c1ccccc1	1	-18	6.7	-0.2	i	30	?
CN(CCCNC(=O)CCCOc1cc(=O)n(C)c2ccccc12)Cc1ccccc1	-2	116*	0.7	0.9	-0.2	-2	5%
O=C(Cc1ccccc1)Nc1ccc(C(=O)Nc2ccccc2C(=O)O)cc1	2	-8	1.8	3.0	-1.6	87*	5%
COc1ccc(CCNc2nc(C)cc(C)n2)cc1OC	-9	-12	2.6	-4.8	0.0	-14	/
Cc1ccc(C(C)C)c(OCc2nc(-c3nonc3N)no2)c1	6	-8	-1.5	-3.2	3.3	-2	-6%
CCOC(=O)COc1ccc(Br)cc1/C=C\c1[nH]c(=O)[nH]c(=O)c1[N+](=O)[O-]	-10	-9	2.3	-2.1	0.4	/	?
CC(=O)N/C(=C/C(C)C)c1ccccc1	10	/	/	1.0	0.0	-1	/
Cc1ccc(OCCOCCN(C)C)c(Cl)c1	2	-4	-1.4	-1.6	-4.1	-9	17%
CC(=O)OC(C(=O)NCc1ccco1)c1cccnc1 (centres undefined)	-3	7	2.1	1.6	-1.5	-30	6%
COc1ccc2[nH]c(=O)c(CN(CCN3CCCC3)C(=O)Nc3ccccc3Cl)cc2c1	-3	-5	-1.6	2.6	-6.9	/	-3%

3 compounds already listed, ordered by the value under LANA-H2A inh, rising:
Molecule,B2AR ag,RanGTP-Imp inh,HNF4A DNA FP,LANA-H2A inh,ALR inh,Vif TR-FRET
Cc1ccc(OCCOCCN(C)C)c(Cl)c1,2,-1.4,-1.6,-4.1,-9,17%
CC(=O)N/C(=C/C(C)C)c1ccccc1,10,/,1.0,0.0,-1,/
CCOC(=O)COc1ccc(Br)cc1/C=C\c1[nH]c(=O)[nH]c(=O)c1[N+](=O)[O-],-10,2.3,-2.1,0.4,/,?

(further entries)
SMILES	B2AR ag	Calb FLC	RanGTP-Imp inh	HNF4A DNA FP	LANA-H2A inh	ALR inh	Vif TR-FRET
CC(=O)n1nc(-c2ccc(Cl)cc2)nc1NCc1ccco1	0	3	-0.6	-0.8	-0.5	-14	63%
CSC(=S)N/N=C(\C)c1ccccc1	-2	-31	-5.1	3.0	-1.2	44	31%
O=C1NC2(CCCC2)N=C1c1ccc(F)cc1	10	-27	-0.4	2.1	0.3	/	-4%
CCOC(=O)C1(CCCc2ccccc2)CCN(C(=O)c2cc(C)nc(C)n2)CC1	1	-12	4.3	0.8	-1.8	-24	/
Nc1c(C(=O)N/N=C/c2ccccc2Cl)oc2nc(-c3ccccc3)cc(-c3ccco3)c12	-174	0	-9.8	64	-4.0	-11	-1%
O=C1NCCN(Cc2ccoc2)C1CC(=O)N(Cc1ccccc1)CC1CCC1 (centres undefined)	-10	-11	-0.2	3.7	4.8	18	7%
CC(=O)Nc1ccc(NC(=O)C/C(C)=N/NC(=O)COc2cc(C)c(Br)cc2Br)cc1	-28	-9	3.0	-0.8	-4.6	5	/
COc1cc(NC(=O)CCCNC(=O)c2ccc(Cl)cc2)cc(OC)c1OC	3	/	6.0	-4.4	-1.8	19	-1%
CC(C)N(C(=O)[C@H]1C[C@H](CC(=O)NCC23CC4CC(CC(C4)C2)C3)C(=O)N2CCc3c([nH]c4cc(-c5ccco5)ccc34)[C@]12C)C(C)C	3	/	/	2.2	/	/	-3%
COC(=O)CSc1nnc(-c2ccco2)o1	5	-21	?	0.5	-2.2	-7	5%
COc1ccc(S(=O)(=O)N2CCN(Cc3ccc4c(c3)OCO4)CC2)cc1F	7	-33	4.3	-1.9	0.4	/	/
CC[C@]12c3[nH]c4ccccc4c3CCN1C(=O)C(CC(=O)NC(C)(C)C)C[C@@H]2C(=O)N1CCN(C(=O)C2CC2)CC1 (some centres undefined)	5	/	/	1.3	183*	-1	-2%
CC1CCN(C(=O)c2[nH]cnc2C(=O)NCCCCCNC(=O)OC(C)(C)C)CC1	5	/	/	-2.4	0.8	3	/
C=C(C)CN1C(=O)c2ccccc2C1=O	6	-14	-0.8	-1.3	1.5	-8	-4%
O=C(COC(=O)c1ccc(O)cc1)NCC1CCCO1 (centres undefined)	0	-8	-1.2	2.9	-1.7	10	-6%
Cc1ccc(NC(=O)CCC(=O)N/N=C/c2cc([N+](=O)[O-])ccc2O)cc1	9	6	?	-1.1	1.2	-29	0%
CCc1nn2c(=O)cc(CSCC(=O)Nc3ccccc3Cl)nc2s1	-4	-4	2.5	1.6	/	32	-3%
O=C(NNC(=O)C1[C@H]2CCCC[C@@H]12)c1ccc(=O)oc1 (some centres undefined)	4	2	-0.1	0.5	0.3	96*	?
Cc1ccc(C(C(=O)NCc2ccccc2)N(C(=O)c2csnn2)C2CC2)cc1 (centres undefined)	20	13	3.0	0.2	1.3	-42	/
CCCn1nnnc1NCc1cc(Br)ccc1OC	-8	-10	0.3	-0.3	4.2	4	-3%
N/C(=N\N=C\c1cccc([N+](=O)[O-])c1)c1nonc1N	3	-2	?	-0.4	4.9	-12	/
O=C(Cn1c(=O)cnc2ccccc21)N1CCN(S(=O)(=O)c2ccc(F)cc2)CC1	-1	8	-0.9	0.2	-4.0	-3	/
Cc1cc([N+](=O)[O-])ccc1NC(=O)C1CCCO1 (centres undefined)	-6	-3	2.9	-2.2	3.1	1	6%
CCCCOC(=O)c1ccc(NC(=O)c2ccoc2C)cc1	3	13	-3.1	-0.8	-4.5	-3	-1%
Cc1ccccc1OCC(=O)NNC(=O)C1CCCCC1C(=O)O (centres undefined)	-2	5	-5.1	4.2	-2.3	/	-4%
CCOc1cc(N2CCOCC2)c(OCC)cc1NCC(=O)N1CCN(Cc2ccccc2)CC1	5	13	0.2	-1.8	0.4	/	/
CC(=O)Nc1ccc2nc(NC(=O)COc3ccc(C)cc3)sc2c1	-10	33	5.9	-4.0	-1.9	/	-8%
O=C(c1cc(-c2cccc(O)c2)on1)N1CCCCCC1	4	-9	-0.9	0.6	1.3	/	/
O=C(CNc1cccc(C(F)(F)F)c1)N/N=C/C1CCCCC1	-1	-1	21	2.6	2.9	-3	12%
O=C1/C(=C/c2ccc(O)cc2)COc2ccccc21	-4	-7	-2.7	4.8	3.1	0	/
CN(C)/C=C1/C=C(C=O)OC1=O	9	9	5.2	-2.1	1.7	-5	/
NC(=S)N/N=C\c1c(OCc2ccccc2Cl)ccc2ccccc12	16	34	-5.0	-3.2	-0.6	/	/
COc1ccccc1C(=O)NNC(=O)C(=O)Nc1ccc(C)c(Cl)c1	3	-4	-2.9	-2.2	1.4	2	/
O=C(Nc1nccs1)c1ccc(N2CCOCC2)c([N+](=O)[O-])c1	-10	9	?	1.4	-6.3	2	/
CC(=O)N1CCc2cc(NS(=O)(=O)c3cccs3)ccc21	-13	-3	3.9	-1.8	-2.4	-11	?
COc1ccc(NC(=O)c2ccc(Br)c(S(=O)(=O)N3CCOCC3)c2)cc1	3	1	-0.3	-1.7	4.8	/	/
CCOC(=O)CSc1nc2nc(C)cc(C)n2n1	5	-6	-1.8	0.9	0.2	/	0%
COc1ccc(-c2nc(CN3CCCCC3c3nccn3C)c(C)o2)c(C)c1C (centres undefined)	-1	-17	1.8	7.4	0.4	-4	4%
CCC(C)[C@H](NC(=O)NCc1cccnc1)C(=O)OC (some centres undefined)	-3	-7	-1.9	-0.7	-0.6	-3	10%
COc1ccc(NC(=O)CCCn2cnc3ccccc3c2=O)c(OC)c1	1	0	3.5	2.4	0.4	-15	-3%
Cc1ccc(NC(=S)N2CC(C)OC(C)C2)cc1C (centres undefined)	-6	4	/	1.8	-4.8	-7	/
CC(C)CCn1c(O)c(N=NC(=O)Cn2ccc(C(F)(F)F)n2)c2ccccc21	-14	36	2.9	-3.9	-0.6	0	/
COc1ccc(O)c(C(=O)c2cc(C(=O)NCCc3ccccc3)c(=O)n(CCc3ccccc3)c2)c1	-4	37	3.3	-0.3	0.2	-2	/
CC(NC1=CC(=O)c2cccnc2C1=O)C(O)c1ccccc1 (centres undefined)	-14	/	/	6.1	/	/	31%
Cc1ccc(C)c(-n2c(-c3ccncc3)n[nH]c2=S)c1	1	-3	-1.3	2.7	2.7	46	0%
Cc1cccc(N2CCN(C(=O)COc3ccc4c(C)cc(=O)oc4c3C)CC2)c1C	6	4	-1.6	0.1	-7.9	0	/
O=C(CSc1nc(-c2ccccc2)cs1)Nc1nccs1	-3	112*	-3.6	0.6	-3.7	-2	10%
O=C(CN1CCCCC1)NNC(=O)c1cccc(Br)c1	-4	20	7.3	0.6	1.7	7	/
Cc1nc(-c2ccccc2)cc(N2CCCC2)n1	-12	-2	6.7	0.0	3.6	7	-4%
O=C1C2C(C(=O)N1CCN1CCN(Cc3ccc([N+](=O)[O-])cc3)CC1)[C@H]1C=C[C@@H]2C1 (some centres undefined)	-3	-3	1.3	0.2	-1.9	-7	5%
CC(=O)c1ccc(NC(=O)C2CCC(C)(C(=O)O)C2(C)C)cc1 (centres undefined)	3	-6	?	-4.2	0.5	1	-5%
Cc1cccc(Nc2nc(C)cc(C)n2)c1	9	4	4.7	-4.7	7.9	-13	0%
